HSD17B inh – HSD17B dehydrogenase inhibition; recombinant HSD17B10, NADH fluorescence kinetic; many of its hits are not listed in these tables; Potency, µM (doses to about 57.1 µM), without a hit: at the top dose activity change, negative = inhibition, most hits filed as inhibitors; 7.6% of 75,000 active; active = well fitted inhibition curve with a large enough effect; inconclusive = small, poorly fitted or top-dose-only effect; inactive = no such curve, though single readings can be large or run the other way;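 also: the protocol describes HADH2 (HSD17B10) and not the HSD17B4 of the title; nearly all actives have a fitted effect of over 70% in size; most hits overshoot -100% by far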
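20 nM HADH2, pH 9.0 Tris/Tween; cpd preinc 15 min RT; start w/ 1 mM NAD+ + 90 uM b-hydroxybutyryl-CoA; kinetic fluor ex360/em450 q30s x 4 min; delta last-first.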
Starred values were filed as active, the others as inactive; ? = inconclusive; [ ] = remark or other dose. % is scaled to controls: 0 for no effect and ±100 for the full control effect; potency is read from the fitted curve at half-maximal effect. Only part of the results is shown; count on the stated rates, not on these rows.

cpd | SMILES | HSD17B inh
1 | CCn1c2ccccc2c2nnc(SCc3ccc(C(=O)OC)o3)nc21 | -23%
2 | CN=C1SC(CC(=O)Nc2ccc(N3CCOCC3)cc2)C(=O)N1C (centres undefined) | 0%
3 | CCCc1cc(=O)[nH]c(SCC(=O)NC(=O)c2ccccc2)n1 | -1%
4 | Cc1cc2nsnc2c(S(=O)(=O)NCC(=O)O)c1C | -2%
5 | Cn1cccc1C(=O)N1CCC2(CC1)CCN(c1cccc(-c3ccccc3)c1)CC2 | ?
6 | CCOc1ccc(OCC)c(NC(=O)C2CCCN2S(=O)(=O)c2cccc3cccnc23)c1 (centres undefined) | -6%
7 | CCOc1ccccc1-n1nnnc1SCC(=O)Nc1cc(C)on1 | -5%
8 | COc1ccc(N(CC(O)Cn2nnc3ccccc32)S(=O)(=O)c2ccc(C)cc2)cc1 (centres undefined) | -4%

(continued)
cpd | SMILES | HSD17B inh
9 | COc1cccc(N2CCN(CC(=O)Nc3nnc(-c4ccccc4)s3)CC2)c1 | -9%
10 | O=C(NCCCN1CCCC1=O)c1cccc(N2CCCC2=O)c1 | 1%
11 | COc1ccccc1N=C(C)C1=C(O)CSC1=O | -8%
12 | O=C(O)c1ccc(NS(=O)(=O)c2cccc3ccccc23)cc1 | 5%
13 | Cc1c(C(=O)N2CCN(C)CC2)oc2ccc(S(=O)(=O)N3CCOCC3)cc12 | -1%
14 | CC(=O)N1C(C(=O)O)CSC1c1ccc(C)cc1 (centres undefined) | -4%
15 | CCOC(=O)C1CCN(CC(=O)Nc2c(C(=O)OC)[nH]c3ccc(Cl)cc23)CC1 | ?
16 | COc1cccc(-c2ccc(=O)n(CC(=O)NCCN3CCOCC3)n2)c1 | -2%

Next entries follow:
cpd | SMILES | HSD17B inh
17 | Cc1nnc(NC2=NCCC2)o1 | -12%
18 | CCCc1nnc(SCC(=O)Nc2ccc(OCC)cc2)n1N | 7%
19 | CCOC(=O)C1=C(C)NC(=O)C(C#N)C1c1ccncc1 (centres undefined) | 0%
20 | CCCS(=O)(=O)N1CCCC(C(=O)NCc2ccc3c(c2)OCO3)C1 (centres undefined) | -2%
21 | COCCNC(=O)Cn1nc(C(F)(F)F)c(Cl)c1C | 6%
22 | CCCCN(C)CCCNC(=O)C1CC(=O)N(Cc2ccc(OC)cc2)C1 (centres undefined) | -2%
23 | Cc1c(=O)n(OCc2ccccc2)c2ccccc2[n+]1[O-] | -26%
24 | COc1ccc(-c2nnc(SCC(=O)Nc3ccc(Cl)cc3)n2C)cc1 | -1%

Of the compounds above, two have a furan ring, fused or not.
cpd | SMILES | HSD17B inh
1 | CCn1c2ccccc2c2nnc(SCc3ccc(C(=O)OC)o3)nc21 | -23%
13 | Cc1c(C(=O)N2CCN(C)CC2)oc2ccc(S(=O)(=O)N3CCOCC3)cc12 | -1%

New compounds follow.
cpd | SMILES | HSD17B inh
25 | COC(=O)c1c(NC(=O)c2ccc(S(=O)(=O)N3CCOCC3)cc2)sc2c1CCN(C)C2 | 0%
26 | O=C(O)C1C2C=CC(C2)C1C(=O)NCCc1ccccc1 (centres undefined) | -3%
27 | CC(=O)c1c(N2CCOCC2)nc(=S)n(-c2cc(C)ccc2C)c1C | -3%
28 | C=CCN(CC=C)C(=O)Nc1cc(Cl)ccc1OC | -7%
29 | O=C(NC1CCCCC1)C(c1ccco1)N(Cc1cccnc1)C(=O)C1COc2ccccc2O1 (centres undefined) | 7%
30 | COc1cc2c(cc1NC(=O)COC(=O)Cn1cnc3ccccc31)oc1ccccc12 | -8%
31 | Cc1ccccc1S(=O)(=O)Cc1ccc(C(=O)NCCCOC(C)C)o1 | -13%
32 | CCCCC(C=O)NC(=O)C(CC(C)C)NC(=O)OCc1ccccc1 (centres undefined) | 9%

The listing continues:
cpd | SMILES | HSD17B inh
33 | COCCN(CCOC)C(=O)c1ccc(Cc2nc3ccccc3[nH]2)cc1 | -10%
34 | Cc1ccccc1NC(=O)C1CCN(c2cnccn2)CC1 | 12%
35 | CCCn1c(-c2ccc(F)cc2)nc2c(NC3CCN(Cc4ccccc4)CC3)nc(C)nc21 | 32µM*
36 | O=C1C(=O)N(CCO)C(c2ccccc2)/C1=C(\O)c1ccccc1 (centres undefined) | 2%
37 | O=c1cc(-c2ccccc2)nc(N2CCN(Cc3ccc4c(c3)OCO4)CC2)[nH]1 | ?
38 | CC(=O)OC[C@@H]1O[C@@H](O/N=C2/C[C@@H](O)[C@@H](O)[C@@H]3[C@@H]4C(=O)N(C5CCCCC5)C(=O)[C@H]4CC[C@H]23)[C@H](OC(C)=O)[C@H](OC(C)=O)[C@@H]1OC(C)=O | 2%[11.4 µM]
39 | COC(=O)c1ccccc1NC(=O)C1CC(=O)N(C2CCCCC2)C1 (centres undefined) | -9%
40 | O=C1CC(c2ccncc2)c2cc3c(cc2N1)OCCO3 (centres undefined) | 7%

(continued)
cpd | SMILES | HSD17B inh
41 | Cc1c(-c2ccccc2)sc(N)c1C(=O)N1CCOCC1 | 32µM*
42 | COC(=O)CN(n1cnnc1)S(=O)(=O)c1ccccc1 | 5%
43 | COc1ccc(-n2c(=O)cnc3cnc(N4CCOCC4)nc32)cc1 | 3%
44 | CCOC(=O)CC1(CC(=O)OCC)NC(=O)c2c(C)sc(C(=O)OCC)c2N1 | 25µM*
45 | Nc1nc2c(ncn2[C@H]2CC[C@@H](CO)O2)c(=O)n1C(=O)c1ccccc1 | -5%[11.4 µM]
46 | CC(C)(C)c1c2c(c(C(C)(C)C)c3c1OCN(Cc1ccccc1)C3)OCN(Cc1ccccc1)C2 | -4%[11.4 µM]
47 | C=CCC(NCc1ccccc1)c1ccco1 (centres undefined) | -7%
48 | CCOC(=O)N1CCC(Nc2ncnc3c2cnn3-c2ccc(C)cc2C)CC1 | -19%

Grouped by structure, those above with four or more nitrogen atoms (16)
cpd | SMILES | HSD17B inh
1 | CCn1c2ccccc2c2nnc(SCc3ccc(C(=O)OC)o3)nc21 | -23%
2 | CN=C1SC(CC(=O)Nc2ccc(N3CCOCC3)cc2)C(=O)N1C (centres undefined) | 0%
7 | CCOc1ccccc1-n1nnnc1SCC(=O)Nc1cc(C)on1 | -5%
8 | COc1ccc(N(CC(O)Cn2nnc3ccccc32)S(=O)(=O)c2ccc(C)cc2)cc1 (centres undefined) | -4%
9 | COc1cccc(N2CCN(CC(=O)Nc3nnc(-c4ccccc4)s3)CC2)c1 | -9%
16 | COc1cccc(-c2ccc(=O)n(CC(=O)NCCN3CCOCC3)n2)c1 | -2%
17 | Cc1nnc(NC2=NCCC2)o1 | -12%
18 | CCCc1nnc(SCC(=O)Nc2ccc(OCC)cc2)n1N | 7%
24 | COc1ccc(-c2nnc(SCC(=O)Nc3ccc(Cl)cc3)n2C)cc1 | -1%
34 | Cc1ccccc1NC(=O)C1CCN(c2cnccn2)CC1 | 12%
35 | CCCn1c(-c2ccc(F)cc2)nc2c(NC3CCN(Cc4ccccc4)CC3)nc(C)nc21 | 32µM*
37 | O=c1cc(-c2ccccc2)nc(N2CCN(Cc3ccc4c(c3)OCO4)CC2)[nH]1 | ?
42 | COC(=O)CN(n1cnnc1)S(=O)(=O)c1ccccc1 | 5%
43 | COc1ccc(-n2c(=O)cnc3cnc(N4CCOCC4)nc32)cc1 | 3%
45 | Nc1nc2c(ncn2[C@H]2CC[C@@H](CO)O2)c(=O)n1C(=O)c1ccccc1 | -5%[11.4 µM]
48 | CCOC(=O)N1CCC(Nc2ncnc3c2cnn3-c2ccc(C)cc2C)CC1 | -19%

High-throughput results (PubChem)
